Calb biofilm kill = mixture kills Candida albicans biofilm cells; inhibition, % at 7.6 µM; AID 1242; hit rate 0.02% among 120,000; C. albicans biofilm persisters + clotrimazole, fluorescence viability; primary screen in compound mixtures of four per well;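 active = inhibition above 30.3% in the primary screen of four-compound pools, then above 30% when the compound was retested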;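 note: compounds exposed to preformed 24 h biofilms for 48 h; the number belongs to the whole pool; some results filed as inactive read as strong as hits; inactives centre near 12; 0% = biofilm with clotrimazole alone and 100% = kill control; retested singly at about 60 µM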
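Incubation: 24 h biofilm formation, then 48 h compound exposure, 37 °C | Material: C. albicans biofilms | Buffer or medium: RPMI/MOPS medium, pH 7.0 | Measured by: 2-h Alamar Blue fluorescence, 535/590 nm excitation/emission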
* hit, by the source's call.

SMILES	Calb biofilm kill
COc1ccc(-c2csc(N3C(=O)CNC3=S)n2)cc1	6
COc1ccc(C(C)(C)C)cc1S(=O)(=O)N1CCC(C(N)=O)CC1	16
OC(CNC1CCCCC1)COCCOc1ccc(Br)cc1 (stereo not drawn)	18
CCC(Nc1ccc(OC)cc1)C(=O)N/N=C/c1ccc([N+](=O)[O-])cc1 (stereo not drawn)	17
O=C(NCc1ccccc1)Nc1cc(Cl)ccc1Cl	13
CCn1c2ccccc2c2cc(NC(=O)C(=O)N3CCOCC3)ccc21	12
O=C(N/N=C/c1ccco1)c1cc(-c2ccc(Br)s2)[nH]n1	16
C/C(=N\NC(=O)c1cccc(S(=O)(=O)N2CCOCC2)c1)c1cc2ccccc2o1	12
Cc1[nH]nc(Nc2ccc(Br)cc2)c1[N+](=O)[O-]	18
O=C(N/N=C/c1ccccc1)c1c(O)c2ccccc2[nH]c1=O	14
COc1ccc(-n2cc(CNC3CCOCC3)c(-c3cccc(F)c3)n2)cc1	8
O=C(O)C1=C[C@@H](c2ccc3c(c2)OCO3)C[C@@H](OCCCCO)O1	13
Cc1c2c(c(C)n1C)C(C(=O)NC1CCCCC1)N(Cc1ccccc1)C2=O (stereo not drawn)	2
Cc1nnc(SCC(=O)N2CC(=O)Nc3ccccc32)s1	9
Cn1cc(Br)c(C(=O)Nc2sc3c(c2C#N)CCC3)n1	13
COc1ccc(C(=O)/C=C/Nc2ccc(S(=O)(=O)Nc3nc(C)cc(C)n3)cc2)c(OC)c1	22
Cc1ccc(N(C(=O)c2ccccc2Cl)C2=NC(C)CS2)c(C)c1 (stereo not drawn)	12
O=c1cc(CNc2cc(Cl)ccc2Cl)nc2sccn12	14
CN(C)c1oc(-c2ccccc2[N+](=O)[O-])nc1C#N	14
CCN=C1S/C(=C\c2ccc(O)c(OCC)c2)C(=O)N1CC	14
COc1ccc(CNn2c(-c3ccccc3F)nc3ccccc3c2=O)cc1OC	14
Cc1ccccc1NC(=O)c1cn2c(nc3ccccc32)c(C#N)c1C	15
CNC(=S)SCCOc1ccccc1	15
O=S(=O)(c1ccc(F)cc1)N1CCN(Cc2ccccn2)CC1	23
Cn1nnnc1SCC(=O)NCc1ccccc1	9
O=C(NCCCN1CCOCC1)C(=O)N/N=C/c1ccccc1O	28
CCCNC(=O)c1ccc2c(=O)c(O)c(-c3ccc(F)cc3)[nH]c2c1	6
C/C(=N/NC(=O)CNC(=O)CCc1ccccc1)c1ccc(Cl)cc1	21
N#CCCCCN1CCCC1	24
O=P(O)(O)c1ccccc1OCCOCCOCCOCCOc1ccccc1P(=O)(O)O	17
O=C(O)c1c2c(nc3ccc(S(=O)(=O)N4CCC(C(=O)NC5CCCCCC5)CC4)cc13)CCCC2	14
COc1cc(C(CCN2CCN(c3ccccc3)CC2)c2c(OC)cc(OC)c3c(C)cc(=O)oc23)cc(OC)c1OC (stereo not drawn)	3
CN(Cc1cnn(C)c1)Cc1nc(-c2ccc(Cl)cc2)no1	14
Cc1ccccc1C(=O)NC(=S)Nc1cccc(NC(=O)C(C)C)c1	3
COC(=O)c1cc2c(ccn2-c2ccc(F)cc2)n1Cc1ccc(C#N)cc1	7
Cc1cc(C)c2nc(NNC(=O)c3cc(-c4cccs4)nc4ccccc34)sc2c1	2
COc1cc(C2NC(=O)NC(C)=C2[N+](=O)[O-])cc(OC)c1OC (stereo not drawn)	10
CCOc1ccccc1NC(=S)NCC1CCCO1 (stereo not drawn)	19
O=C1CC(C2CCCO2)C(=O)N1c1ccc(Cl)c(Cl)c1 (stereo not drawn)	18
O=C(NCC1CCCO1)c1cc2c(=O)[nH]c3ccccc3c2s1 (stereo not drawn)	15
O=S(=O)(Cc1ccc(Cl)cc1)NCc1cccnc1	1
N#CC1CC(c2ccc([N+](=O)[O-])cc2)=NN1c1ccc([N+](=O)[O-])cc1 (stereo not drawn)	16
CC1CCCCC1NC(=S)NC(=O)c1cccs1 (stereo not drawn)	18
COc1cccc(S(=O)(=O)Nc2ccc(C(=O)N3CCCCCC3)cc2)c1	10
O=CN1N=C(c2ccccc2)CC1c1ccccc1[N+](=O)[O-] (stereo not drawn)	13
O=C(C1CC=CCC1)N1CCC(CO)(Cc2ccc(Cl)cc2)CC1 (stereo not drawn)	20
C=CCOc1ccnc(-c2ccccc2)n1	20
CCOC(=O)c1sc(NC(=O)Nc2ccc(F)cc2)nc1C	18
O=C1CCCN1CCC1CCCCN1Cc1nc(-c2cnccn2)no1 (stereo not drawn)	8
CC(=O)Nc1ccc(S(=O)(=O)NC(C)C(=O)OCC(=O)NC2CCCC2)cc1 (stereo not drawn)	22
C/C(=N/NC(=O)CN1CCN(S(=O)(=O)c2ccc(Br)cc2)CC1)c1ccco1	21
O=S(=O)(NCCCN1CCOCC1)c1ccc(Cl)s1	21
CCOC(=O)N1CCN(C(=O)C(=O)N/N=C/c2ccc(OC)cc2OC)CC1	16
O=c1c([N+](=O)[O-])cccn1Cc1ccc(F)cc1Cl	16
CN(CC(=O)Nc1ccccc1C(F)(F)F)C(=O)COc1cccnc1[N+](=O)[O-]	10
O=C(CCC1CCCC1)Nc1cccc(Cc2ccncc2)c1	-2
O=S(=O)(c1ccc(Cl)cc1)N1CCCN(c2ccc(C(F)(F)F)cn2)CC1	-6
Cc1cccn2c(CNCCSc3nccn3C)c(C(=O)N3CCCCC3)nc12	3
N#Cc1c(-c2cccnc2)cc(-c2ccccc2)nc1N	14
NC(=O)C1=C[C@H](c2ccc(C(F)(F)F)cc2)C[C@H](OCCCCO)O1	20

An excerpt of these results, as labelled records:
O=C(C1CC=CCC1)N1CCC(CO)(Cc2ccc(Cl)cc2)CC1 (stereo not drawn)
- Calb biofilm kill: 20

C=CCOc1ccnc(-c2ccccc2)n1
- Calb biofilm kill: 20

CCOC(=O)c1sc(NC(=O)Nc2ccc(F)cc2)nc1C
- Calb biofilm kill: 18

O=C1CCCN1CCC1CCCCN1Cc1nc(-c2cnccn2)no1 (stereo not drawn)
- Calb biofilm kill: 8

More entries follow.
SMILES	Calb biofilm kill
O=C(Nc1cccc([N+](=O)[O-])c1)Nc1ccc(Cl)cn1	12
NS(=O)(=O)c1ccc(CNC(=O)C2(c3ccc(Cl)cc3)CC2)cc1	5
CCCN(CC1CC1)C(=S)Nc1ccc(C(C)=O)cc1	13
C=CCN=C1S/C(=C\c2ccc(Cl)cc2)C(=O)N1CC=C	26
C/C(=C\c1ccccc1)C(=O)NCc1ccco1	8
CCOc1cc(/C=N/Nc2nc(-c3cccc(S(=O)(=O)N4CCCC4)c3)cs2)ccc1O	8
NS(=O)(=O)c1cccc(NC(=O)CSc2nnc(-c3ccccc3F)n2C2CC2)c1	2
Cc1ccnc(NS(=O)(=O)c2ccc3c(c2)CCO3)c1	18
CCOc1ccccc1N1CCN(C(=O)CC(C)C)CC1	15
CCOC(=O)N/N=C/c1cccnc1	-2
O=[N+]([O-])c1ccc(-n2cccn2)c(-c2nn[nH]n2)c1	3
CC(=O)NN1C(=O)c2ccccc2NC1c1ccc([N+](=O)[O-])o1 (stereo not drawn)	15
COc1cccc(/C=C/C(=O)Nc2ccc(OC)nc2)c1	12
CCC(C)NCCCCOc1ccc(Br)cc1 (stereo not drawn)	26
CC1CC(C)(C)NC(=S)N1CC(=O)N(C)Cc1ccccc1 (stereo not drawn)	15
Cc1cc(C)c(NC(=O)Cn2c(=O)n(-c3ccc(CC(=O)NCC4CCCO4)cc3)c(=O)c3ccccc32)c(C)c1 (stereo not drawn)	5
COc1ccc(Cc2nnc(Nc3ccc(C)cc3)o2)cc1OC	21
CN(C)C(=O)CSc1nnc(-c2ccncc2)n1Cc1ccco1	11
O=C(c1cc2sccc2n1Cc1ccc(F)cc1)N1CCc2ccccc21	20
Cc1ccc(S(=O)(=O)N(C)C)cc1NC(=S)N(CCC#N)Cc1cccnc1	17

Three successive compounds out of the list so far, for reference:
SMILES	Calb biofilm kill
O=[N+]([O-])c1ccc(-n2cccn2)c(-c2nn[nH]n2)c1	3
CC(=O)NN1C(=O)c2ccccc2NC1c1ccc([N+](=O)[O-])o1 (stereo not drawn)	15
COc1cccc(/C=C/C(=O)Nc2ccc(OC)nc2)c1	12

More structures:
SMILES	Calb biofilm kill
CN(C)CCNC(=O)Nc1cccc(Cl)c1Cl	13
CC1CC(C)CN(CCCNC(=O)c2ccc3c(SCC(=O)O)c4c(nc3c2)CCC4)C1 (stereo not drawn)	5
CCN(CCn1cccn1)C(=O)c1cc(COc2ccc(F)cc2Cl)on1	8
COc1ccc(C)cc1-n1nc2ccccc2n1	0
COC(CNC(=O)CSCc1nc(-c2ccc(SC)cc2)oc1C)OC	10
O=C(CCSCc1ccccc1Cl)NCc1ccco1	8
CSc1ccc(/C=N/NC(=O)CN2CCN(Cc3ccc(Cl)cc3)CC2)cc1	6
Cc1ccc([N+](=O)[O-])cc1S(=O)(=O)NCc1cccnc1	11
Cc1occc1-c1nnc(SCC(=O)NCCc2ccccc2)o1	-8
Cc1cc(C)c(C)c(C(=O)C2OC(=O)C(C)(C)C(=O)C2(C)C)c1C (stereo not drawn)	7
COc1ccc(NC(=O)CSc2nc3nc(-c4cccs4)cc(C(F)(F)F)c3c(=O)[nH]2)c(OC)c1	14
O=C(CCNC(=O)c1ccc(Cl)cc1)Nc1ccc(Cl)cc1F	4
COc1ccc(CCNC(=O)c2nc(-c3cccs3)no2)cc1OC	19
COc1cccc(CNC(=O)Cc2csc(Nc3nc(=S)[nH]c4ccccc34)n2)c1	6
CCOC(=O)N1CCN(Cc2nc(C3CC3)no2)CC1	19
CC1(C)CC(=O)C2=C(C1)NC(Nc1nc3ccccc3o1)=NC2c1ccccn1 (stereo not drawn)	8
Cc1cc(/C=N/NC(N)=S)c(C)n1-c1ccc(Cl)c(Cl)c1	12
CCn1ccnc1CN(C)Cc1cn(-c2ccccc2)nc1-c1ccc(OC)cc1F	5
COC(=O)C1CC(=O)c2sccc2C1 (stereo not drawn)	11
Cc1noc(C)c1C(=O)N1CCCC(C(=O)c2cccc(C(F)(F)F)c2)C1 (stereo not drawn)	6

Random excerpt: three compounds from above.
SMILES	Calb biofilm kill
CN(Cc1cnn(C)c1)Cc1nc(-c2ccc(Cl)cc2)no1	14
O=[N+]([O-])c1ccc(-n2cccn2)c(-c2nn[nH]n2)c1	3
O=S(=O)(NCCCN1CCOCC1)c1ccc(Cl)s1	21

Going on with the list.
SMILES	Calb biofilm kill
COc1cc(C2Nc3c(F)cccc3C3C=CCC32)cc(Br)c1OC (stereo not drawn)	7
COC(=O)C1=NNC2(C)C(=O)N(c3ccc(C)cc3)C(=O)C12 (stereo not drawn)	21
NCCCC[C@@H]1NC(=O)c2cc([N+](=O)[O-])cc(I)c2SC[C@@H](C(N)=O)NC(=O)[C@H](CCC(N)=O)NC1=O	13
COC(=O)C1=C(C)Nc2c(c(=O)n(C)c(=O)n2C)C1c1ccc(C)cc1 (stereo not drawn)	7
CCCCN(CC)Cc1ccc(CNC(=S)Nc2ccccc2F)o1	14
COC(=O)c1ccc(C(=O)OC)c(NC(=O)COC(=O)c2ccccc2OC)c1	25
COc1ccc(C2C(C(=O)c3sc(C)nc3C)=C(O)C(=O)N2CCN2CCOCC2)cc1 (stereo not drawn)	20
Cc1cc(C)c(S(=O)(=O)Nc2cc(SCC(=O)O)c(O)c3ccccc23)cc1C	13
COc1ccccc1N(CC(=O)Nc1cccc(C(F)(F)F)c1)S(C)(=O)=O	2
C#CCOc1ccc(C2C3=C(COC3=O)Nc3cc4c(cc32)OCO4)cc1OC (stereo not drawn)	7
Cc1ccc(-c2cc(C(=O)Nc3ccc(S(=O)(=O)Nc4onc(C)c4C)cc3)[nH]n2)c(O)c1	16
O=C(Nc1ccccc1)c1cc(Cl)nc2ccccc12	9
CCOC(=O)c1c(/N=C/C2=C(O)CC(C)(C)CC2=O)sc2c1CCCC2	26
CC1=C(C(=O)OC2CCCCC2)C(c2cccnc2)n2nnnc2N1 (stereo not drawn)	13
C=C(C)Cn1c(SCC(=O)N/N=C/c2c(O)ccc3ccccc23)nc2ccccc2c1=O	14
O=C(Cc1c(F)cccc1Cl)Nc1cc(S(=O)(=O)N2CCCCC2)ccc1N1CCOCC1	12
CCN(CC)N=Nc1ccc(C(=O)O)cc1	-6
CC(=O)Nc1ccc(Nc2ncnc3ccccc23)cc1	25
Cc1[nH]c(=O)[nH]c(=O)c1NC(=O)c1ccc(OC(C)C)cc1	23
O=C1c2ccccc2C(=O)C1(CO)c1ccccc1	16

Part of the list above in order of formula weight, ascending:
SMILES	Calb biofilm kill
O=C1c2ccccc2C(=O)C1(CO)c1ccccc1	16
CCCCN(CC)Cc1ccc(CNC(=S)Nc2ccccc2F)o1	14
COc1cc(C2Nc3c(F)cccc3C3C=CCC32)cc(Br)c1OC (stereo not drawn)	7

More compounds follow.
SMILES	Calb biofilm kill
COc1ccccc1CNC(=O)C1CCN(S(=O)(=O)c2ccc3c(c2)OCCCO3)CC1	17
O=C(CN1C(=O)c2cccc3cccc(c23)C1=O)NCCN1CCOCC1	5
Cc1nc2ccccn2c1C(=O)NNC(=S)Nc1ccc(Cl)cc1	7
CCNC(=O)COC(=O)/C=C/c1c(C)nn(Cc2cccc(OC)c2)c1Cl	9
Cc1ccnc(NS(=O)(=O)c2ccc(NC(=O)c3ccc([N+](=O)[O-])s3)cc2)n1	7
Cc1ccccc1NC(=O)c1c(C)nn(-c2ccccc2)c1Cl	4
CC(=O)c1ccccc1NS(=O)(=O)c1ccccc1Cl	19
CC(C)CCNC(=O)NC(=O)COC(=O)/C=C/c1cccc([N+](=O)[O-])c1	18
CN1C(=S)NC(C)(C)CC1(C)c1ccc(O)cc1O (stereo not drawn)	15
COc1ccc(C2=Nc3ccc(Br)cc3C(c3ccccc3)N2CC(=O)NN)cc1 (stereo not drawn)	8
CCC(CC)NC(=O)CSc1nnc(-c2c[nH]c3ccccc23)o1	7
CS(=O)(=O)NN1C(=O)c2ccccc2NC1c1cc2ccccc2nc1Cl (stereo not drawn)	19

Not all compounds are listed; rates above refer to the full screens.
